GIRK2 act: GIRK2 channel activation; hit rate 0.05% among 63,000; calls only for hits at 25 µM; HEK293-GIRK2 thallium flux, Thallos fluorescence; P48051; AID 1259325;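 active means among the strongest 0.2% of first-round signals and kept after retests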;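 further: first round at about 10 µM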
Target sequence (P48051 whole entry, looked up): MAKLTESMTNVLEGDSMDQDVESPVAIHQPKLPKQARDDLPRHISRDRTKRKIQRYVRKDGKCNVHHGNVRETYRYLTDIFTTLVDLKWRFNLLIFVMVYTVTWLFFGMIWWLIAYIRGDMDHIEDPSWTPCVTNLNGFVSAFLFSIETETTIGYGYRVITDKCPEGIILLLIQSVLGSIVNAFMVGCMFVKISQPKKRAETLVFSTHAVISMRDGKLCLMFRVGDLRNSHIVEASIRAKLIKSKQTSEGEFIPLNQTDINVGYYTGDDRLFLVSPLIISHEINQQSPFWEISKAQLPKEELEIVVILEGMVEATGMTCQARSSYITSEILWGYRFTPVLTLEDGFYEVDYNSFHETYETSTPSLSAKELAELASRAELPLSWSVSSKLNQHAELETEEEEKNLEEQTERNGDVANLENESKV
Calls only; i = inactive.

SMILES	GIRK2 act
O=c1ccc(-c2nc(-c3ccc4c(c3)OCO4)no2)cn1Cc1cc(=O)n2ccccc2n1	i
COc1cccc(NC(=O)Nc2ccc3c(c2)CCC(=O)N3CCC(C)C)c1OC	i
CCCn1c(=O)c2c(nc3n2CC(C)=NN3CCN2CCOCC2)n(C)c1=O	i
CC[N+]1(CC(O)COC23CC4CC(CC(C4)C2)C3)CCCC1 (centres undefined)	i
Cc1ccc(NC(=O)CSc2nc3c(oc4ccccc43)c(=O)n2Cc2ccco2)c(C)c1	i
CCc1cccc(C)c1NC(=O)Cn1c(=O)cnc2cc(C(=O)NC3CCCC3)ccc21	i
Cc1cc(OCC(=O)Nc2ccc(F)cc2F)nc(N2CCC(C)CC2)n1	i
C=C(C)Cn1c(=O)c2c(nc3n2CC(C)CN3c2ccc(Oc3ccccc3)cc2)n(C)c1=O (centres undefined)	i
CCSc1nnc(NC(=O)CN(C)c2nc3c(C(F)(F)F)cccc3s2)s1	i
Nc1c2cnn(-c3ccccc3)c2nc(=O)n1-c1ccccc1	i
Cn1c(C2CCC(CNC(=O)c3ccncc3)CC2)nc2ccccc21 (centres undefined)	i
Cc1ccc(-c2c(C)nn3c(N4CCN(c5cccc(C)n5)CC4)cc(C)nc23)cc1	i
CCOCC(=O)Nc1cc(-c2cccs2)nn1-c1nc(-c2ccccc2)cc(=O)[nH]1	i
Cn1c(=O)c2c(nc(NCc3ccccc3)n2CC(N)=O)n(C)c1=O	i
O=C(c1cc(-c2ccc3c(c2)OCO3)n[nH]1)N1CCCC(COCc2ccccc2)C1 (centres undefined)	i
O=C(CN1C(=O)c2ccccc2S1(=O)=O)Nc1ncnc2nc[nH]c12	i
Cc1ccc2nc3c(cc(C(=O)N4CCN(C(=O)c5ccco5)CC4)n3C)c(=O)n2c1	i
COc1cccc(CC(=O)Nc2ccc(Cn3cnc(C(=O)Nc4ccc(C)cc4C)c3)cc2)c1	i
Cc1ccc(N2CC(c3nc(-c4ccc5c(c4)OCO5)no3)CC2=O)cc1C (centres undefined)	i
CCC(C)NC(=O)CCn1c(=O)c2ccccc2n2c(SCC(=O)N(C)c3ccccc3)nnc12 (centres undefined)	i
CSCC(C)(O)CNC(=O)NCc1ccccc1 (centres undefined)	i
COc1cccc(Cn2nc3c(S(=O)(=O)N4CCN(c5ccc(F)cc5)CC4)cccn3c2=O)c1	i
CCCCOc1ccc(NC(=O)NCCC(O)C2CC2)cc1 (centres undefined)	i
Cc1ccc(C)c(S(=O)(=O)N2C(=S)NC(=O)C2CC(C)C)c1 (centres undefined)	i
O=S(=O)(c1ccc(Cl)cc1)N1CN(CC2CCCO2)c2nc3ccccc3nc21 (centres undefined)	i
CC(C)CCN1C(=O)CCc2cc(NC(=O)Nc3cccs3)ccc21	i
COc1ccc(CC(C)(O)CNC(=O)C(=O)Nc2ccccc2)cc1 (centres undefined)	i
O=C(NCCOc1cccc2cccnc12)c1cnn(-c2ccccc2)n1	i
C/C(=N/N(c1ccccc1)c1ccccc1)c1ccccc1	i
Cc1cccc2sc(OC3CN(C(=O)c4cc5ccccc5o4)C3)nc12	i
CCCCCCCCC#CCCCCCCCC(=O)c1nc2ncccc2o1	i
Cc1ccc(-c2nc(Cn3nnc(C(=O)NCc4ccc(Br)cc4)c3C)c(C)o2)cc1	i
CCC(C(=O)NCCn1ncccc1=O)c1ccccc1 (centres undefined)	i
Cc1cc(N2CCCCC2)nc(NCCNC(=O)/C=C/c2ccccc2)n1	i
O=C(Nc1ccc2c(c1)N(C(=O)c1cccs1)CC2)c1cc2ccccc2oc1=O	i
O=C(c1nc2ccccc2s1)N1CCN(CCn2cccn2)CC1	i
O=S(=O)(NCCCN1CCN(c2ccccc2)CC1)c1ccc2c(c1)OCCO2	i
O=C(Oc1ccc2c(=O)c(-c3ccccc3)coc2c1)c1ccccc1F	i
COCCN(Cc1ccoc1)C(=O)NC1CCCC1	i
O=C(CCl)Nc1cccc(-c2nc3ccccc3s2)c1	i
COc1ccc(-c2nc(CSc3nc4ccccc4n4c(C(C)C)nnc34)c(C)o2)cc1OC	i
Cc1ccc2oc3c(c(=O)c2c1)C(c1ccccc1)N(c1nccs1)C3=O (centres undefined)	i
CN(C)C(CNS(=O)(=O)c1ccc2c(c1)OCCO2)c1ccc(F)cc1 (centres undefined)	i
COc1ccc(-c2noc(-c3ccc(=O)n(CC(=O)Nc4ccc(Cl)cc4)c3)n2)cc1	i
COc1cc(C2NN(C)C3C(=O)NC(=O)C23)ccc1O (centres undefined)	i
O=C(Nc1nccs1)C1CCN(C(=O)Cn2ccc3ccccc32)CC1	i
CCN(CC)CCCN1C(=O)c2oc3ccccc3c(=O)c2C1c1ccc(OC(C)C)cc1 (centres undefined)	i
O=C(C1CC=CCC1)N1CCC(CSC2=NCCS2)CC1 (centres undefined)	i
C=CCN1CC(c2nc3ccccc3n2C(C)c2ccccc2)CC1=O (centres undefined)	i
COc1ccc(CCC(=O)Nc2cccc(-n3c(C)nc4ccccc4c3=O)c2)cc1	i
CN1CCc2c(sc(NC(=O)C3COc4ccccc4O3)c2-c2nc3ccccc3s2)C1 (centres undefined)	i
CCCCOc1ccc2c(=O)c3ccc(O)cc3oc2c1	i
Cc1nc2ccc(Cl)cn2c(=O)c1NC(=O)Nc1cc(Cl)cc(Cl)c1	i
COc1ccccc1OCC#CCNC(=O)NC1CCCCC1	i
COc1ccc(CCS(=O)(=O)NCC(c2ccco2)N2CCc3ccccc3C2)cc1 (centres undefined)	i
Cc1ccc(-c2cc(=O)n(CC(=O)Nc3ccc(F)cc3F)[nH]2)cc1	i
C=CCNC(=O)c1nnn(-c2ccc(OCC)cc2)c1COC	i
COC(=O)N1CCc2ccccc2C1C(=O)Nc1ccccc1OC(F)(F)F (centres undefined)	i
CC(=O)N1CCN(c2ccnc3c2c(=O)n(CC(=O)Nc2cccc(F)c2)c(=O)n3C)CC1	i
CCOc1cc(C)c(S(=O)(=O)N2CCCCCC2)cc1C(C)C	i

The closing 2 records of the part above lead into the next:
SMILES	GIRK2 act
CC(=O)N1CCN(c2ccnc3c2c(=O)n(CC(=O)Nc2cccc(F)c2)c(=O)n3C)CC1	i
CCOc1cc(C)c(S(=O)(=O)N2CCCCCC2)cc1C(C)C	i
CCC(=O)Nc1c(-c2ccccn2)nsc1C(=O)NCc1ccc(C(F)(F)F)cc1	i
CCOC(=O)c1nnn(-c2ccc(Cl)cc2)c1N	i
CCCCC(=O)Nc1cc(C)nn1-c1nc(-c2ccc(OC)c(OC)c2)cs1	i
O=C(c1cccs1)N(C(=O)N1CCCCC1)c1ccccc1	i
COc1ccc(S(=O)(=O)NCCN2CCN(C(=O)OC(C)(C)C)CC2)cc1	i
Cn1nc(-c2ccc(F)cc2)cc1C(=O)NCC1CCN(C(=O)c2cc3ccccc3o2)CC1	i
C=C(C)COc1ccc(-c2ncncc2-c2ccc(Cl)cc2)c(O)c1	i
C=CCn1c(=O)c2c(nc3n2CC(C)CN3c2cc(C)ccc2OC)n(C)c1=O (centres undefined)	i
COc1ccc(-c2c(C)oc3cc(OCC(=O)O)ccc3c2=O)cc1	i
COc1ccc(S(=O)(=O)Nc2cnc(N3CCN(c4ccccn4)CC3)nc2)c(C)c1C	i
COc1ccc(F)cc1S(=O)(=O)Nc1ccc2c(c1)N(S(=O)(=O)c1ccccc1)CCC2	i
Cc1nc2ccccc2n1CC1CCN(CC(=O)Nc2ccc(OC(F)(F)F)cc2)CC1	i
O=C(Nc1nc2c(s1)CCCC2C(=O)NCc1nc(-c2ccccc2)no1)c1ccc(Cl)cc1 (centres undefined)	i
Cn1c(=O)c2c(nc3n2CC(c2ccccc2)=NN3CC(=O)O)n(C)c1=O	i
Cc1cc(C)cc(OCCNS(=O)(=O)c2ccccc2[N+](=O)[O-])c1	i
Cn1nnnc1SCC(=O)Nc1cc(-n2cccn2)ncn1	i
Cc1cc(C(=O)N2CCN(Cc3nc4ccccc4[nH]3)CC2)c(C)o1	i
COc1ccc2sc(N(Cc3ccncc3)C(=O)c3cccs3)nc2c1	i
Cc1ccc(S(=O)(=O)c2c(C)nn(C(C)(C)C)c2OC(=O)CCC2CCCC2)cc1	i
CS(=O)(=O)c1cccc2sc(N3CCN(C(=O)c4ccco4)CC3)nc12	i
Cc1oc(-c2ccc(Cl)cc2)nc1CSc1nc(-c2ccncc2)cc(=O)[nH]1	i
Cc1cc(C)n(CC2CCN(C(=O)c3cc4ccccc4[nH]3)CC2)n1	i
Cc1cc(C)n(-c2nc(CCNC(=O)/C=C/c3cccs3)cs2)n1	i
CC(O)(CNC(=O)c1c(F)cccc1F)c1cccs1 (centres undefined)	i
CCSc1ccccc1C(=O)N1CCCC(c2nnc(C)s2)C1 (centres undefined)	i
O=C(/C=C/c1cccs1)N1CCC(Oc2nc3ccccc3s2)CC1	i
Cc1noc(C)c1CCC(=O)Nc1ccc(-c2ccn[nH]2)cc1	i
COc1ccc(OC)c(S(=O)(=O)N2CCC(Cc3ccccc3)CC2)c1	i
O=c1c2ccccc2n(Cc2nc(-c3cccc(Br)c3)no2)c(=O)n1Cc1ccco1	i
CCC(=O)N1CCCc2cc(NC(=O)NCc3ccc(Cl)cc3)ccc21	i
O=[N+]([O-])c1ccc(-c2nc3nc4ccccc4nc3n2CCCN2CCOCC2)cc1	i
Cn1cccc(C(=O)NCC#CCOc2cccc(C(F)(F)F)c2)c1=O	i
Cc1ccc(-c2csc3c(=O)n(CC(=O)Nc4ccc(C)cc4C)cnc23)cc1	i
Cc1nc(OCC(=O)Nc2cnc(-n3nc(C)c(C)c3C)nc2)cc(-n2cccn2)n1	i
COc1ccc(NC(=O)Nc2nc3ccc(SC)cc3s2)cc1OC	i
CC(C)c1ccc(OCC(=O)N2CC(c3nc(-c4ccco4)no3)C2)cc1	i
CC/C=C\C/C=C\C/C=C\C/C=C\C/C=C\C/C=C\CCC(=O)O	i
O=C(Nc1ccc2c(c1)N(C(=O)C1CC1)CC2)c1ccc(C(F)(F)F)cc1	i
O=C1CCSCC(C(=O)N2CCC(O)CC2)N1 (centres undefined)	i
O=C(Cn1c(=O)nc(-c2ccccc2)c2ccccc21)N1CCN(Cc2ccc3c(c2)OCO3)CC1	i
O=C(Cn1cc(-c2nc(C3CC3)no2)ccc1=O)NCc1ccc(F)cc1F	i
COc1ccc2c(CNc3ccc(N(C)C(C)=O)cc3)cc(=O)oc2c1	i
CCOC(=O)N1CCc2c(sc(NC(=O)c3ccccc3Cl)c2-c2nc3ccccc3s2)C1	i
CCCCNC(=O)c1ccc(-n2ccnc2SCC(=O)Nc2ccccc2C(=O)OC)cc1	i
CCC(=O)Nc1ccc(C(=O)NCCNS(=O)(=O)c2cc(C)ccc2C)cc1	i
O=C(Nc1ncn[nH]1)c1ccc(Cl)c(S(=O)(=O)N2CCCCC2)c1	i
COCCCNC(=O)CSc1nc(-c2ccc(OC)cc2)[nH]c1-c1ccccc1	i
CCn1cnc2c(-c3ccccc3)cn(CC(=O)Nc3ccc(Br)cc3)c2c1=O	i
Cc1ccc(NC(=O)Cn2nc3ccc(-c4ccc(C)cc4)nn3c2=O)cc1	i
Cc1ccc(C)c(Cn2c(=O)c3c(nc4oc(-c5ccc(F)cc5)cn43)n(C)c2=O)c1	i
O=C(Nc1ccc2c(c1)CN(S(=O)(=O)c1ccccc1)CC2)c1cc(-c2ccco2)on1	i
COc1ccccc1OCC(=O)N1CCN(c2nnc(SCC(=O)NC(C)C)s2)CC1	i
COc1ccc(Oc2c(C)nc(N)nc2-c2ccc(OCc3ccccc3)cc2O)cc1	i
Cc1cccc(N2CCCn3c2nc2c3c(=O)n(CC(N)=O)c(=O)n2C)c1	i
O=C(CSc1ncn[nH]1)Nc1nsc(-c2ccc(Cl)cc2)n1	i
CN(C(=O)Cn1c(CO)nc2ccccc21)c1ccccc1	i
COc1ccc(CCNc2cc(C)nc3cc(-c4ccc(OC)c(OC)c4)nn23)cc1OC	i
CCCCC(=O)Nc1cc(C)nn1-c1nc(-c2cccc(OC)c2)cs1	i
Cc1cc(C)c2nc(C)cc(NC(=O)c3ccc(S(=O)(=O)N4CCCC4)cc3)c2c1	i
O=C(CN1CCN(Cc2nc3ccccc3[nH]2)CC1)Nc1ccccc1	i

Four compounds from above, arranged by SMILES length, rising.
SMILES	GIRK2 act
CN(C(=O)Cn1c(CO)nc2ccccc21)c1ccccc1	i
CCCCC(=O)Nc1cc(C)nn1-c1nc(-c2cccc(OC)c2)cs1	i
Cc1ccc(NC(=O)Cn2nc3ccc(-c4ccc(C)cc4)nn3c2=O)cc1	i
O=C(Nc1ccc2c(c1)CN(S(=O)(=O)c1ccccc1)CC2)c1cc(-c2ccco2)on1	i

Given with the structure last: entries from further up
GIRK2 act	structure
i	Cc1ccc(-c2nc(Cn3nnc(C(=O)NCc4ccc(Br)cc4)c3C)c(C)o2)cc1
i	CCC(C(=O)NCCn1ncccc1=O)c1ccccc1 (centres undefined)
i	Cc1cc(N2CCCCC2)nc(NCCNC(=O)/C=C/c2ccccc2)n1
i	O=C(Nc1ccc2c(c1)N(C(=O)c1cccs1)CC2)c1cc2ccccc2oc1=O
i	O=C(c1nc2ccccc2s1)N1CCN(CCn2cccn2)CC1
i	O=S(=O)(NCCCN1CCN(c2ccccc2)CC1)c1ccc2c(c1)OCCO2

Carrying on.
SMILES	GIRK2 act
COc1ccc2oc(C(=O)Nc3ccccc3OC)cc(=O)c2c1	i
O=C(Oc1ccccc1)N1CCC(CNC(=O)C2(c3ccc(F)cc3)CC2)CC1	i
Cc1ccc(Cl)cc1NC(=O)Cn1cnc(-c2noc(-c3cccc(F)c3)n2)c1	i
CCSc1ccccc1C(=O)N1CCN(CC(F)(F)F)CC1	i
Cc1cccc2sc(OC3CN(C(=O)C4CCN(S(C)(=O)=O)CC4)C3)nc12	i
COc1cc(C)c(Br)cc1S(=O)(=O)NCCCn1ccnc1	i
CS(=O)(=O)N1CCN(C(=O)c2csc(-c3cc4ccccc4[nH]3)n2)CC1	i
CN(C)CCN1C(=O)c2oc3ccccc3c(=O)c2C1c1cccs1 (centres undefined)	i
COCCCn1c(C(=O)NCc2ccccc2)cc2c(=O)n3ccccc3nc21	i

These rows are one share of the data. The share of hits here may be higher or lower than overall.
